Screens from PubChem.
Rango release inh – qHTS Assay for Inhibitors of RanGTP induced Rango (Ran-regulated importin-beta cargo) - Importin beta complex dissociation | Biochemical FRET Rango-importin beta, RanGTP-induced dissociation | Potency, µM (titrated, usually from 46.1 µM), for inactives: at the top dose activity change, negative = inhibition | actives 0.071% (n = 340,000); active means falling FRET ratio curve, often poorly fitted, with flat reads before Ran was added; inconclusive means other falling curves, or compound fluorescence or quenching; inactive means flat or rising ratio curve;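 also: potency is read from the fitted curve at half-maximal effect; % of control where 0% means no effect; nearly all actives have a fitted effect of over 45% in size; -100% = wells without RanGTP and RCC1; the record marks most hits as doubtful in a second field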
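FRET read at 45 min, room temperature: inhibitors block the CFP/YFP signal rise when RanGTP (0.6 uM Ran, 2 mM GTP, 0.2 uM RCC1) frees Rango (0.1 uM) from importin beta (0.25 uM). Pre-read after 5 min compound exposure flags interference.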
Rango complex inh – qHTS Assay for Inhibitors of Rango (Ran-regulated importin-beta cargo) - Importin beta complex formation; Importin subunit beta-1 (Homo sapiens), Q14974; Rango CFP/YFP FRET sensor + importin beta, 45 min; Potency, µM (doses to about 92.2 µM), without a hit: top-dose inhibition of complex formation; actives 0.031% (n = 340,000); active = rising FRET ratio curve, often small or poorly fitted; inconclusive = mostly compound fluorescence or quenching in the first reads; inactive = flat curves in all reads;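 also: potency is read from the fitted curve at half-maximal effect; 0% = DMSO wells and 100% = buffer wells lacking importin beta; nearly all actives have a fitted effect of over 15% in size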
Target sequence (Q14974 whole entry, looked up): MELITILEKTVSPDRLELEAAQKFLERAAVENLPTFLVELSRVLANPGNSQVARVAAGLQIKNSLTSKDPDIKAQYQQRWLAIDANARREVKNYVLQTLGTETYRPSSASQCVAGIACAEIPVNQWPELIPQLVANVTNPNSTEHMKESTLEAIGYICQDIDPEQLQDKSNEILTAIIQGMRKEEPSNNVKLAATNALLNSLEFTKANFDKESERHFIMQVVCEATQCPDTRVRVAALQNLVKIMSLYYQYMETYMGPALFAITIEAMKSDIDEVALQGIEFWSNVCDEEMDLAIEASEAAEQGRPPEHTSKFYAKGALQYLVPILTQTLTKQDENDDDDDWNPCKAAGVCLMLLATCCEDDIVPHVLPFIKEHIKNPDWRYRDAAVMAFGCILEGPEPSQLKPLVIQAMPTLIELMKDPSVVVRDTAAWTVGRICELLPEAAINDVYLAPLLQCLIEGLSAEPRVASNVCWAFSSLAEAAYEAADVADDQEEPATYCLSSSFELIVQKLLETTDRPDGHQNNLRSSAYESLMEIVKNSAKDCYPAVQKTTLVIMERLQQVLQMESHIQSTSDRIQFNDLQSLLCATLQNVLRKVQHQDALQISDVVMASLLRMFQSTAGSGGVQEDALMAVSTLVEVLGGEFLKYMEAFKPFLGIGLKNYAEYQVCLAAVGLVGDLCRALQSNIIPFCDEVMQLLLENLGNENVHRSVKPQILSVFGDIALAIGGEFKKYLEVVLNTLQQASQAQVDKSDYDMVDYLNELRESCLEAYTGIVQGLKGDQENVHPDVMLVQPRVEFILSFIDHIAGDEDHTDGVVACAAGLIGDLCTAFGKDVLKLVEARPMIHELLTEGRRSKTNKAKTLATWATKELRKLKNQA
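FRET biosensor (snurportin 1 IBB flanked by EYFP and cerulean), 50 nM, with compound 5 min, then 0.125 microM importin beta in PBS, 1 mM DTT, 0.02% Tween-20, 0.1% BSA. CFP/YFP ratio read after 45 min at room temperature; pre-read flags interference.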
GLA inh pH 4.5 – qHTS Assay for Inhibitors of Human alpha-Galactosidase at pH 4.5 | 230,000 tested, under 10 active | activity change, negative = inhibition, % at 105 µM | purified enzyme, 4-MU-alpha-Gal fluorescence, pH 4.5 | AID 1467, 2008; inconclusive = small, poorly fitted or top-dose-only inhibition, or a rising curve; inactive = flat fitted curve, though single readings scatter; no compound was filed as active;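 also: 0% = full activity with enzyme and -100% = basal without enzyme; dose as in the result columns while the protocol names 77 µM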
miR-21 FLuc – qHTS Assay for Modulators of miRNAs and/orActivators of miR-21; AID 2288, 2010; 340,000 tested, under 10 active; HeLa miR-21 FLuc reporter, luciferase, 48 h; Potency, µM (titrated, usually from 38.3 µM), inactives show at the top dose reporter change, positive = more light; active = well fitted rising curve with a large enough effect; inconclusive = small, poorly fitted or top-dose-only effect; inactive = no such curve, though single readings can be large or run the other way;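 also: % of control where 0% means no effect; miR-21 action dims this reporter so a rising signal means less miR-21 action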
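HeLa cells endogenously expressing miR-21, stably carrying CMV-driven firefly luciferase with a downstream miR-21 binding site, 2000 cells/well. Titrations up to approximately 40 uM, 48 hours; luciferase luminescence read.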
Active calls of the source: *; ? = inconclusive; · = not tested or not shown; & = joins results of further samples; [ ] = dose if it differs, or a comment. These rows are one share of the data (hit frequency here may not be typical).

SMILES	Rango release inh	Rango complex inh	GLA inh pH 4.5	miR-21 FLuc
Cc1nn(C(=O)CNS(=O)(=O)c2ccccc2)c(C)c1Sc1ccc(Cl)cc1	-6.0%	-0.2%	1.3	-10.0%
CC(C)CN(C(=O)COC(=O)C1c2ccccc2Oc2ccccc21)C1CCS(=O)(=O)C1 (stereo not given)	2.5%	3.1%	5.4	-4.0%
CC(Oc1ccccc1)C(=O)N1CCC2(CC1)Oc1ccc(F)cc1C(=O)C21CC(c2cccnc2)=NO1 (stereo not given)	9.0%	4.4%	·	·
Cc1ccc2sc(NC(=O)c3cccc(N4C(=O)CCC4=O)c3)nc2c1C	-19.8%	-2.5%	·	6.3%
Cc1cccc(Nc2nnc(SC(C)C(=O)NC3CC3)s2)c1 (stereo not given)	-16.7%	3.6%	·	·
Cc1cc(C)cc(NC(=S)N2CCN(S(=O)(=O)c3ccccc3)CC2)c1	-0.6%	2.6%	·	2.7%
Cc1ccc(C)c(NC(=O)NNC(=O)c2ccc3ccccc3c2O)c1	-7.4%	-5.8%	·	0.9%
O=C(Cn1nnc(-c2ccc(NC(=O)c3ccccc3F)cc2)n1)NCc1ccc(F)cc1	6.0%	?	2.0	-19.7%
O=S(=O)(Cc1ccc(Cl)cc1)c1ccccc1-c1nnc(-c2ccc(Cl)cc2)o1	20.2%	-2.7%	-23.4	-0.2%
O=C(CCCOc1ccc(Cl)cc1Cl)NC(Cc1ccccc1)C(=O)O (stereo not given)	-11.0%	0.2%	·	·
COc1ccc(N2C(=O)CC(N3CCN(S(=O)(=O)c4cc(C)ccc4C)CC3)C2=O)cc1 (stereo not given)	-9.2%	-1.0%	4.7	-3.7%
Clc1cc(Cl)cc(Nc2ncnc(-n3cccc3)n2)c1	3.8%	-0.2%	-0.6	4.3%
CCOc1ccc(N(Cc2cc3cc(OC)ccc3[nH]c2=O)C(=O)C2CCCO2)cc1 (stereo not given)	1.1%	0.7%	2.2	-0.5%
Cc1cc(C)c(NC(=O)NC(=O)C(Cl)(Cl)Cl)c(C)c1	3.3%	-1.9%	·	2.8%
COc1ccc(S(=O)(=O)N2CCCCC2)cc1C(C)C	5.2%	-1.6%	-8.5	1.5%
CCC(C)[C@H](NC(=O)[C@@H]1Cc2ccccc2CN1)C(=O)NCc1ccc(OC)cc1 (stereo not given in full)	14.7%	3.3%	·	1.9%
c1ccc(-c2nc(NCCCN3CCOCC3)c3ccccc3n2)cc1	2.0%	0.1%	1.6	1.9%
CCN(CC)CCn1c2c(c(SCC(=O)Nc3cccc4ccccc34)nc1=O)CCCC2	1.8%	-2.6%	·	·
O=C1C=C(C2CCCCC2)C(=O)c2ccccc21	4.3%	2.8%	·	·
CCCN(CCC)CCN1C(=O)C2C(C(=O)Nc3cccc(SC)c3)C3C=CC2(O3)C1C(=O)NC1CCCCC1 (stereo not given)	-10.7%	6.4%	·	-0.5%

Entries of single compounds, looked up by structure:
Listed for CCC(C)[C@H](NC(=O)[C@@H]1Cc2ccccc2CN1)C(=O)NCc1ccc(OC)cc1 (stereo not given in full) : Rango release inh = 14.7%; Rango complex inh = 3.3%; GLA inh pH 4.5 = ·; miR-21 FLuc = 1.9%
Listed for O=C(CCCOc1ccc(Cl)cc1Cl)NC(Cc1ccccc1)C(=O)O (stereo not given) : Rango release inh = -11.0%; Rango complex inh = 0.2%; GLA inh pH 4.5 = ·; miR-21 FLuc = ·
Listed for COc1ccc(N2C(=O)CC(N3CCN(S(=O)(=O)c4cc(C)ccc4C)CC3)C2=O)cc1 (stereo not given) : Rango release inh = -9.2%; Rango complex inh = -1.0%; GLA inh pH 4.5 = 4.7; miR-21 FLuc = -3.7%

Remaining list, next part:
SMILES	Rango release inh	Rango complex inh	GLA inh pH 4.5	miR-21 FLuc
O=C(NCCN1CCOCC1)NC1(C(F)(F)F)Oc2ccccc2O1	10.1%	2.7%	-8.2	-29.0%
COc1cc(NS(C)(=O)=O)c(OC)cc1NC(=O)c1ccccc1	1.4%	2.6%	-3.9	1.6%
CC1CC(CCC(=O)NC(=S)Nc2ccc(Cl)cn2)C(=O)O1 (stereo not given)	-4.7%	-0.8%	5.0	-0.2%
O=S(=O)(Nc1cc(C(F)(F)F)ccc1N1CCOCC1)c1ccc2ccccc2c1	-2.5%	-1.1%	-3.8	16.9%
COc1cccc(/C=N/NC(=O)c2nnn(-c3nonc3N)c2-c2cccs2)c1	-1.4%	-3.9%	·	3.0%
COc1ccc(N(CC(=O)NCCSC(C)(C)C)S(C)(=O)=O)c(OC)c1	2.7%	-0.4%	7.2	-1.5%
Cc1c(Cl)cccc1NC(=O)COC(=O)CN1C(=O)NC(C)(C)C1=O	-0.6%	-2.2%	9.9	1.1%
O=C(CCN1CCCCC1)c1ccc2c(c1)OCO2	2.8%	3.2%	2.1	-7.6%
CC(C)CNC(=S)N(CCO)Cc1cc2cc3c(cc2[nH]c1=O)OCO3	17.1%	-2.3%	·	-17.7%
C(=C\c1nccc2c1[nH]c1ccccc12)/c1ccccc1	16.4µM*	?	18.3	10.6%
Cc1ccc2oc(/N=C(\N)NC(=O)C3CC3)nc2c1	-17.5%	1.7%	-2.7	17.9%
Cc1ccc(S(=O)(=O)N2CCN(C(=O)c3ccccc3OCc3c(C)noc3C)CC2)cc1C	9.5%	-0.3%	·	·
CCOc1ccc(C2/C(=C(\O)c3cccc(OC)c3)C(=O)C(=O)N2c2ccccn2)cc1OC (stereo not given)	14.2%	?	-6.2	-7.9%
CC(OC(=O)c1ccncc1)C(=O)Nc1ccc([N+](=O)[O-])cc1Cl (stereo not given)	-4.1%	-1.9%	6.5	-14.2%
NC(=O)c1ccc[n+](CC(=O)c2ccc(Cl)c(Cl)c2)c1	4.6%	-0.5%	·	-7.7%
O=C(N[C@H](CO)[C@H](O)c1ccc([N+](=O)[O-])cc1)C(Cl)Cl	-7.4%	2.2%	0.4	·
CCC(C)(C)NC(=O)C(NS(=O)(=O)c1cccs1)c1ccccc1 (stereo not given)	-11.8%	-7.7%	·	-3.4%&0.1%
CCOC(=O)C(NC(=O)c1ccccc1)(OCc1ccccc1)C(F)(F)F (stereo not given)	-13.2%	?	-4.0	-3.4%
CCCCn1c(N)c(N(CC)C(=O)c2ccc(N(C)S(=O)(=O)c3ccc(C)cc3)cc2)c(=O)[nH]c1=O	6.5%	-1.8%	·	·
COc1ccc(CNC(=O)CSc2nnnn2C)cc1OC	-3.2%	-0.5%	-21.8	0.2%
CCOC(=O)N1CCN(C(=O)COc2ccc(Br)cc2Cl)CC1	-9.2%	-0.9%	-9.7	-19.5%
COc1ccc(-n2nc(C(=O)Nc3cc(OC)c(OC)c(OC)c3)c3ccccc3c2=O)c(OC)c1	8.1%	-6.8%	-6.7	2.5%
C=CCc1c(C)nn(CC(=O)O)c1-c1ccccc1	-1.5%	-0.6%	1.5	-6.0%
CCc1nnc(NC(=O)CCN2C(=O)CCC2=O)s1	5.6%	-0.6%	0.7	1.5%
O=C(NC1CCCCC1)C1CCC(=O)N(Cc2cccc(C(F)(F)F)c2)C1 (stereo not given)	5.1%	-2.8%	·	-3.3%
CCc1nc2ccc(C)cc2c(C(=O)NC2CCCCC2C)c1C (stereo not given)	0.0%	-0.8%	9.3	-0.7%
O=c1[nH]ncc2c3ccccc3n(Cc3ccccc3)c12	5.5%	-4.3%	-2.1	5.4%
CCCCN(CCCNC(=O)Cn1nc(CC)n2c(cc3sc(C)cc32)c1=O)Cc1ccccc1	8.4%	6.9%	·	-4.1%
C/C(=N\NC(=O)Cc1ccc(O)cc1)c1cccnc1	-5.9%	-0.6%	·	-11.6%
COc1ccc(-n2c(COc3ccc(C)cc3)nnc2SCC(=O)O)cc1	-7.0%	2.8%	·	0.8%
CC(C)CNC(=O)COc1cccc(C(=O)NCc2ccccc2)c1	?	1.2%	-21.8	-3.1%
CC(C)CNC(=O)c1ccccc1NC(=O)c1ccc(CN2CCOCC2)cc1	3.1%	1.9%	0.8	-15.5%
O=C(Nc1cccnc1)Nc1cccc([N+](=O)[O-])c1	2.0%	1.6%	·	11.0%
CC(=O)Nc1cccc(C)c1	4.2%	5.4%	·	·
CCOc1cc(C2C(C(=O)OC)=C(C)N=C3SCCC(=O)N32)ccc1OC(C)=O (stereo not given)	7.4%	6.4%	-20.2	-3.8%
COCCn1c(-c2ccccc2)nc2oc3cc(OC)ccc3c(=O)c2c1=O	0.0%	-11.8%	-7.1	-0.2%
CCS(=O)(=O)c1ccc(N)cc1	10.3%	-4.7%	-1.1[21.1 µM]	-3.0%
C[n+]1cccc(C(=O)Nc2ccccc2)c1	-4.0%	-1.7%	·	-1.3%
COCCNC(=O)CCn1nc(-c2ccc(Cl)cc2)c2ccccc2c1=O	-18.5%	-0.1%	·	-3.7%&-7.7%
COC(=O)c1sccc1NC(=O)Nc1cc(C)cc(C)c1	0.0%	-4.2%	·	-28.4%
CCOC(=O)C1CCCCN1Cc1cccc(OCc2ccccc2)c1 (stereo not given)	13.1%	-0.9%	·	-6.9%
O=C(c1ccccc1F)N1CCN(Cc2cccc(Cl)c2)CC1	0.6%	-2.0%	1.8	-3.6%
Cc1ccccc1NC(=S)N1CCN(c2ccccc2Cl)CC1	2.2%	-2.1%	·	4.2%
CC(=O)Nc1ccc(C(=O)CN2C(=O)NC3(CCCCCC3)C2=O)c(F)c1	24.0%	-2.5%	·	·
COc1cccc([C@@H]2Oc3ccc(OC)cc3C(=O)[C@H]2OC(=O)N[C@H](C)C2CCCCC2)c1	·	·	4.9&7.3	-27.0%
C/C(=N\NC(=O)c1cccc(S(=O)(=O)N2CCCC2)c1)c1ccccc1F	4.3%	-4.5%	·	·
Cc1cc(C(=O)CSc2ncn[nH]2)c(C)n1-c1cccc(S(=O)(=O)N2CCOCC2)c1	-5.3%	3.1%	-1.0	0.0%
CCOc1ccc(C(=O)Nc2cccc(C(=O)O)c2)cc1Cl	-1.3%	-3.5%	-1.1	-34.6%
O=C1[C@@H]2[C@H]3CC[C@H](C3)[C@@H]2C(=O)N1O	-0.4%	4.2%	-7.8	-0.2%
CCOC(=O)c1oc2cc(O)c(CC)cc2c(=O)c1-c1ccc2c(c1)OCCO2	20.8%	?	-2.2	-21.5%
CC1(NC(=O)Nc2cccc(Br)c2)CCS(=O)(=O)C1 (stereo not given)	?	1.3%	·	·
Cc1ccc(S(=O)(=O)NCC(=O)N2CCCC2)cc1	1.3%	-1.2%	7.4	-3.4%
COc1ccc(/C=N/NC(=O)c2cccc(O)c2)cc1Cn1nc(C)c([N+](=O)[O-])c1C	-7.1%	-1.9%	-21.9[21.1 µM]	7.6%
CCOC(=O)N1CCC(NC(=O)c2cc(S(=O)(=O)N3CCC4(CC3)OCCO4)ccc2F)CC1	4.1%	-2.9%	3.1	8.6%
O=C(CCNC(=O)c1ccccc1)NNC(=O)c1ccc(F)cc1	35.3%	-0.3%	·	·
CSCCC(NC(=O)COc1ccccc1)C(=O)OCc1ccc(Cl)cc1 (stereo not given)	18.7%	-2.2%	·	·
CCOC(=O)c1sc(NC(=O)c2ccco2)nc1-c1ccccc1	4.8%	-2.3%	5.6	4.9%
C/C=N/NC(=O)c1cc(Br)ccc1O	5.8%	-0.4%	5.1	-20.4%
COc1cccc(CNC(=O)C2CCCN(S(=O)(=O)c3cnc[nH]3)C2)c1 (stereo not given)	30.3%	-0.7%	-5.5	-4.2%
O=C(Nc1ccon1)c1sc2cc(F)ccc2c1Cl	-5.4%	0.4%	-0.6	-64.4%
O=c1ccc(-c2ccc(S(=O)(=O)N3CCN(c4cccc(Cl)c4)CC3)o2)n[nH]1	21.8%	0.0%	·	0.3%
COc1ccc(S(=O)(=O)NCCc2nnc3ccc(SCC(=O)Nc4nc(C)cs4)nn23)cc1	25.4%	-3.8%	0.0	-0.1%
NC(=S)N/N=C/c1coc2c(ccc3ccccc32)c1=O	5.7%	-1.4%	1.5	-15.4%
